HPGD block – HPGD (human) dehydrogenase inhibition; P15428; purified HPGD, NADH fluorescence kinetic, PGE2 substrate; Potency, µM, for the others: at the highest dose activity change, negative = inhibition, most hits filed as inhibitors; hit rate 4.3% among 150,000; active = well fitted inhibition curve with a large enough effect (not every such curve was filed as active); inconclusive = small, poorly fitted or top-dose-only effect, or another doubt; inactive = no such curve, though single readings can be large or run the other way;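 also: top concentration of the series not given in the record; plate controls included wells without enzyme; inactives centre near -10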
Target sequence (P15428 whole entry, looked up): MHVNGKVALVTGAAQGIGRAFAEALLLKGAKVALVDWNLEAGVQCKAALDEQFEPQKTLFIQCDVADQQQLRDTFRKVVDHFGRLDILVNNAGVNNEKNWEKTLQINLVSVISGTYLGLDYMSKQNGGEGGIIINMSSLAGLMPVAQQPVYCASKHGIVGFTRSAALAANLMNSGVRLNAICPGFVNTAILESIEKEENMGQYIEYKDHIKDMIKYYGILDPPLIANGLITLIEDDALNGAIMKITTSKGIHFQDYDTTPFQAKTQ
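20 nM HPGD preincubated 15 min at room temperature with compound in 50 mM Tris-HCl pH 8, 0.01% Tween 20. Started with 1 mM NAD+ and 30 uM prostaglandin E2; NADH fluorescence (360/450 nm) read 5 times over 30-s intervals, last minus first.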
Numbers without * were called inactive; ? = inconclusive. % is scaled to controls: 0 for no effect and ±100 for the full control effect; potency is read from the fitted curve at half-maximal effect.

HPGD block	mol
4%	CCN1/C(=C(\O)c2ccccc2)C(=O)c2ccccc2S1(=O)=O
3%	Cc1ccc(-c2nnn(CC(=O)N(CC(=O)NC(C)C)c3cnc4ccccc4c3)n2)o1
-8%	CCOc1ccc(-c2cn(-c3ccc(OC)cc3)c(SC)n2)cc1
0%	Cc1ccccc1-n1c(N)cc(=O)[nH]c1=S
0%	COc1ccccc1CNC(=O)C(CC(C)C)NS(=O)(=O)c1ccc2c(c1)oc(=O)n2C (centres undefined)
-22%	O=C(CCN1C(=O)c2ccccc2C1=O)NC(=S)Nc1ccccc1Cl
-3%	CCCCCCCCCCCCCCCC(N)=O
-8%	O=C(CCn1[nH]c(=O)c2ccccc2c1=O)N1CCOCC1
?	CCOC(=O)NN1C(=O)c2ccccc2NC1c1cccc(O)c1 (centres undefined)
-16%	CCOC(=O)N1CCC(N(C(=O)Nc2cccc(OC)c2)C(C)CC)CC1 (centres undefined)
-20%	COC(=O)c1cc(=O)n(Cc2ccc(OC)c(OC)c2)c(=Nc2ccc(F)cc2)s1
-14%	Clc1ccc(NCc2nnc3n2CCCCC3)cc1
?	COc1ccc2oc(=O)c(C(=O)n3ccc(C)n3)cc2c1
-5%	Cc1ccc(-c2nnc(OCCN3CCOCC3)c3ccccc23)cc1
?	COc1ccc(C2CC(c3cccs3)=NN2C(=O)CSc2nc3ccccc3s2)cc1 (centres undefined)
?	O=C(NCc1nc(-c2ccccc2)no1)c1ccc(Br)o1
-8%	Cc1ccc(SCCNC(=S)Nc2cc(C)ccc2C)cc1
0%	CN1CCN(c2cc(=O)n(Cc3ccc(F)cc3)c(=O)[nH]2)CC1
-27%	O=C(Nc1ccc(-c2nc3ccccc3[nH]2)cc1)c1ccc2c(c1)OCO2
-4%	CCOc1ccc(C(=O)Nc2c3c(nn2-c2cccc(C)c2C)CS(=O)C3)cc1 (centres undefined)
1%	CC(C)n1c(N2CCN(C(=O)c3cccs3)CC2)nc2ccccc21
-4%	CC(=O)NC(CCS(C)(=O)=O)C(=O)Nc1cc(C)on1 (centres undefined)
-1%	Cc1cc(C)c(C)c(OCCCN(C)C)c1
-15%	CC(C)N1C(=O)C(Cc2nc3ccccc3c(=O)n2-c2ccccc2)c2ccccc21 (centres undefined)
-11%	O=C(N/N=C/CCc1ccccc1)C1CCCCC1
?	FC(F)(F)c1ccc(N2CCN(c3ncnc4c3nnn4Cc3ccccc3)CC2)nc1
0%	COC(=O)C1=C(C)N(C)C(=O)NC1c1ccccc1 (centres undefined)
-2%	CCn1c(CNC(=O)COc2c(C)cccc2C)nnc1SCC(=O)Nc1nccs1
-6%	COc1cccc2c1OC1(C)CC2NC(=O)N1c1cccc(C(=O)Nc2ccc3c(c2)OCCO3)c1 (centres undefined)
2%	CC(C)COP(=O)(OCC(C)C)C(O)c1ccc(F)cc1 (centres undefined)
?	CCCCNc1ncnc2c1cnn2-c1ccccc1
-1%	O=C(Nc1ncc([N+](=O)[O-])s1)C1CCN(S(=O)(=O)c2cnc[nH]2)CC1
3.5µM*	O=C1Nc2ccc(I)cc2/C1=C/c1cc(Br)c(O)c(Br)c1
-13%	CCn1c(-c2ccc(F)cc2)cnc1SCC(=O)N1CCCCC1C (centres undefined)
-13%	Cc1cccc(NC(=S)NN(Cc2ccccc2)c2ccccc2)c1C
-14%	Cc1ccc(C(=O)N2CCN(c3ccc(C(F)(F)F)cn3)CC2)cc1
-20%	CCCc1cc(C(=O)NNC(=S)NCC2CCCO2)cs1 (centres undefined)
-1%	CC(C)(C)C(=O)C(Oc1cccc2nonc12)n1cncn1 (centres undefined)
-5%	N#Cc1c2n(c3c(=O)n(CC(=O)c4ccc([N+](=O)[O-])cc4)cnc13)CCCCC2
10µM*	CC(C)(C)c1ccc(S(=O)(=O)/C=C/C#N)cc1

2 of the compounds above, with tabs.
Molecule	HPGD block
Cc1cccc(NC(=S)NN(Cc2ccccc2)c2ccccc2)c1C	-13%
Cc1ccc(C(=O)N2CCN(c3ccc(C(F)(F)F)cn3)CC2)cc1	-14%

At a glance, some entries already given:
HPGD block	mol
?	CCCCNc1ncnc2c1cnn2-c1ccccc1
-1%	O=C(Nc1ncc([N+](=O)[O-])s1)C1CCN(S(=O)(=O)c2cnc[nH]2)CC1

Carrying on.
HPGD block	mol
?	COC(=O)c1sc(-c2ccccc2)cc1NC(=O)c1ccccc1
-11%	Cc1nc(SCc2nnc(-c3ccc(Cl)cc3)o2)c2c3c(sc2n1)CCC3
-10%	COc1ccc(OCC(=O)N2CCN(C(=O)Cc3ccccc3)CC2)cc1
?	O=C1c2ccccc2S(=O)(=O)N1CCOc1ccccc1
0%	CCOc1ccccc1NC(=O)CN1CCC(NC(=O)c2ccccc2)CC1
-10%	Cc1cc(C(=O)CSc2ccc3c(c2)OCCO3)c(C)n1C1CC1
-3%	CC1CCN(S(=O)(=O)c2cccc(C(=O)NCc3cccs3)c2)CC1
3%	CC1OC(Nc2ccc(OC(F)(F)F)cc2)C(O)C(O)C1O (centres undefined)
-9%	CN1CCN(S(=O)(=O)c2ccc(Sc3nnc(-c4cccs4)n3-c3ccccc3)nc2)CC1
-18%	COc1ccccc1CN(C)CC(=O)Nc1ccc(Cl)cc1C(F)(F)F
13µM*	CN=C1N[C@H](c2ccccc2)N(c2ccccc2)S1
-20%	Cc1ccc(Cn2nnc3c(=O)[nH]c(C4CCCN(C(=O)Nc5ccc(F)cc5F)C4)nc32)cc1 (centres undefined)
-17%	CCOC(=O)c1c(NC(=O)CSc2n[nH]c(N)n2)sc(CC)c1C
-11%	O=C1CSC(c2ccccn2)N1c1ccc(Cl)c(Cl)c1 (centres undefined)
-6%	Brc1ccc(OCc2ccccc2)c(CNCc2ccncc2)c1
-4%	Cn1c(SCC(=O)Nc2nc3c(s2)CCCC3)nnc1-c1ccccc1
-8%	CC(C)C(=O)NC(=S)Nc1ccc(S(=O)(=O)N(C)C)cc1
-7%	CCCn1c(N2CCN(CC(=O)Nc3ccc4c(c3)OCCO4)CC2)nc2ccccc21
11µM*	Cc1ccc(C(=O)NCC2CCCO2)cc1N1CCCC1=O (centres undefined)
?	COc1ccccc1C/C(N)=N/OC(=O)COc1cccc2ccccc12
-13%	C/C(CC(=O)Nc1ccc(OCc2ccccc2)cc1)=N\NC(=O)C(=O)Nc1ccc(C)c(Cl)c1
-9%	CN(C)CC/C=C1/c2cc(F)ccc2CSc2ccc(F)cc21
-3%	C=CCCC
4%	Cc1ccc(S(=O)(=O)NNC(=O)C(O)(c2ccccc2C)c2ccccc2C)cc1
-10%	O=C(/C=N/O)NCC1CCNCC1
14µM*	C/C(=C\C(=O)c1ccncc1)Nc1ccccc1O
-7%	Cc1cccc(/C=N/N2CCN(c3ccccc3)CC2)c1
-16%	Cc1sc2nc3ccc(N4CCCCC4)nn3c(=O)c2c1C
-15%	COc1ccc(S(=O)(=O)N2CCSC2c2ccc(N)cc2)cc1 (centres undefined)
-3%	CN(C)S(=O)(=O)c1ccc(N2CCN(S(=O)(=O)c3ccc(F)cc3)CC2)c(Cl)c1
-2%	COc1ccc2nc(SCC(=O)Nc3ccccc3C#N)[nH]c2c1
-14%	O=C1CC(c2ccccc2)Cc2nc3ncnn3cc21 (centres undefined)
-21%	CCOC(=O)C1=C(C)Nc2nnnn2C1c1ccc(OC)c(Br)c1 (centres undefined)
-1%	CC(C)CCOc1ccc(C2(C)NC(=O)N(CN3CCOCC3)C2=O)cc1 (centres undefined)
0%	O=C1CC(N2CCC(c3nc4ccccc4s3)CC2)C(=O)N1Cc1ccccc1 (centres undefined)
-8%	O=S(=O)(NCCc1csc(-c2cccnc2)n1)c1ccc(Cl)s1
16µM*	Cc1cc(S(=O)(=O)NC2CCCCC2)ccc1OCC(=O)NCc1ccccn1
?	C/C(=C\C(=O)c1ccccc1)Nc1ccc(Br)c(Cl)c1
-9%	Cc1nn(Cc2cccc(Oc3ccccc3)c2)c(C)c1NC(=O)NC12CC3CC(CC(C3)C1)C2
-15%	CCN(C(=O)c1cc2ccccc2oc1=O)c1ccccc1
-10%	Cc1nc2ccccc2c2oc(C(=O)N3CCc4ccccc4C3)cc12
-1%	O=S(=O)(Nc1nc2c(s1)CCCC2)c1ccc(F)cc1
-24%	CC(/C=N/NC(=O)c1cc(-c2ccc(C)o2)[nH]n1)=C\c1ccccc1
-9%	OCC(CBr)(CBr)CBr
?	Cc1ccc(C(C(=O)NCC2CCCO2)N(Cc2ccccc2)C(=O)c2ccc(-c3ccccc3)[nH]2)o1 (centres undefined)
-8%	C/C(N)=C(/C#N)C(=O)COC(=O)CSc1ccccc1
-14%	O=C(O)CSC1CC(=O)N(c2ccc(Cl)c(Cl)c2)C1=O (centres undefined)
-3%	COc1ccc(N2C(=O)CC(N3CCN(C4CCc5ccccc5C4)CC3)C2=O)cc1 (centres undefined)
-11%	COc1cc2c(cc1OC)[C@@H]1C(=O)c3ccc4c(c3O[C@@H]1CO2)C=CC(C)(C)O4
-5%	COc1cccc(C(c2sc3nc(C)nn3c2O)N2CCN(c3ccccc3F)CC2)c1 (centres undefined)

Going on with the list.
HPGD block	mol
-12%	COc1ccc(C2=NOC(C(=O)Nc3cccnc3)C2)cc1 (centres undefined)
-2%	CCOC(=O)C1CCN(C(=O)c2ccccc2NS(=O)(=O)c2cc(C)ccc2C)CC1
-12%	c1ccc(-c2csc(NC3=NCCCCC3)n2)cc1
-10%	N#Cc1c(NC(=O)CCC(=O)O)ccc2ccccc12
-12%	O=C(CCSc1ccccc1)Nc1ncccn1
-16%	COC(=O)c1ccccc1NC(=O)C1CC(c2ccccc2O)=NO1 (centres undefined)
7.1µM*	CCOc1cc(/C=C2\C(=O)N(c3ccc(C(N)=O)cc3)N=C2C)ccc1OC(=O)c1cccs1
-2%	COc1ccc(NS(=O)(=O)c2cccc3nsnc23)cc1OC
?	Cc1cc(NCCCn2ccnc2)n2nc(C)c(-c3ccc(Cl)cc3)c2n1
-8%	Cc1cc(C)cc(NC(=O)C2CCN(c3nc(C)cc(C)n3)CC2)c1
-19%	Cc1ccc(/C=N/NC(=S)N2CCOCC2)cc1
-5%	CCOC(=O)c1ccccc1NC(=S)N1CC(C)CC(C)C1 (centres undefined)
?	Cc1ccc2nc(-c3cccc(NC(=O)c4ccc5c(c4)OCCO5)c3)oc2c1
-12%	COC(=O)CCC(=O)OC1(C)C(=O)C2=CN(Cc3ccc(OC)cc3)C(c3ccc(OC)cc3)=CC2=C(Br)C1=O (centres undefined)
-27%	Cc1cccc(-c2ccc(C=Nc3c(C)n(C)n(-c4ccccc4)c3=O)o2)c1
-9%	O=C(O)CC1C(=O)NCCN1C/C=C/c1ccccc1 (centres undefined)
-15%	COC(=O)c1c(NC(=O)CCCC(=O)O)sc(C)c1C
-9%	Cc1ccc(C2NC(=O)NC(O)(C(F)(F)F)C2C(=O)c2ccccc2)o1 (centres undefined)
-27%	CCCCN1CC(O)=C(c2nc3ccccc3s2)C1=N
-2%	CC(C)(C)c1ccc(S(=O)(=O)n2c(CN3CCOCC3)nc3ccccc32)cc1

In the list so far, these contain a nitro group on carbon.
HPGD block	mol
-1%	O=C(Nc1ncc([N+](=O)[O-])s1)C1CCN(S(=O)(=O)c2cnc[nH]2)CC1
-5%	N#Cc1c2n(c3c(=O)n(CC(=O)c4ccc([N+](=O)[O-])cc4)cnc13)CCCCC2

(listing goes on)
HPGD block	mol
-27%	CC(=O)c1ccc(N2C(=O)C3C(C2=O)C(C(=O)c2ccc(Cl)cc2)N2CCCC32)cc1 (centres undefined)
-28%	CC(=O)Nc1ccc2nc(SCC(=O)O)sc2c1
?	COc1ccccc1CCNC(=O)CCn1c(=O)oc2ccccc21
-7%	CC(C)c1ccc(/C=C/C(=O)NNC(=O)c2cccnc2)cc1
-17%	Cc1ccc(N2CN=c3s/c(=C\c4ccccn4)c(=O)n3C2)cc1
1%	COc1ccc(NC(=O)CSc2ccc(NC(C)=O)cc2)cc1S(=O)(=O)N1CCCCC1
-11%	Cc1ccc(/C=C/C(=O)c2ccccc(=O)c2O)c(C)c1
-7%	Cc1ccc(S(=O)(=O)CCC(=O)N2CCc3ccccc32)cc1
-4%	C=CCn1c(SCC(=O)NC2CCCCC2)nnc1C(C)NC(=O)c1cccs1 (centres undefined)
-14%	COc1ccc(CCNC(=S)Nc2cc(C)ccc2C)cc1
-4%	Oc1ccc(N2CCN(C(c3cccs3)c3nnnn3CCc3ccccc3)CC2)cc1 (centres undefined)
-9%	Cc1ccc(O)c(N)c1
0%	O=C(c1cccnc1)N1CCc2ccccc21
25µM*	COC(=O)c1sc(N2C(=O)C(=O)/C(=C(/O)c3ccccc3)C2c2ccco2)nc1C (centres undefined)
-9%	C#CCOCCOCCOCCNc1nc(N2CCOCC2)nc(N2CCN(C(=O)Cn3cc(CC(C)O)nn3)CC2)n1 (centres undefined)
-16%	O=C1C=C(c2ccccc2)CC(c2cccs2)C1n1cnc([N+](=O)[O-])c1 (centres undefined)

HPGD block, hit marks shown above.
HPGD block	mol
3.5µM*	O=C1Nc2ccc(I)cc2/C1=C/c1cc(Br)c(O)c(Br)c1
10µM*	CC(C)(C)c1ccc(S(=O)(=O)/C=C/C#N)cc1
13µM*	CN=C1N[C@H](c2ccccc2)N(c2ccccc2)S1
11µM*	Cc1ccc(C(=O)NCC2CCCO2)cc1N1CCCC1=O (centres undefined)
14µM*	C/C(=C\C(=O)c1ccncc1)Nc1ccccc1O
16µM*	Cc1cc(S(=O)(=O)NC2CCCCC2)ccc1OCC(=O)NCc1ccccn1
7.1µM*	CCOc1cc(/C=C2\C(=O)N(c3ccc(C(N)=O)cc3)N=C2C)ccc1OC(=O)c1cccs1
25µM*	COC(=O)c1sc(N2C(=O)C(=O)/C(=C(/O)c3ccccc3)C2c2ccco2)nc1C (centres undefined)

Only part of the results is shown; count on the stated rates, not on these rows.
